VACV mCherry inh: inhibitors of vaccinia virus infection (mCherry reporter signal); Vaccinia virus mCherry reporter infection, fluorescence; about a quarter of the inactives have no number; Potency, µM (highest dose often 36.5 µM), without a hit: at the highest dose activity change, negative = inhibition, hits mostly inhibitors; actives 0.63% (n = 310,000); AID 720579; active = well fitted inhibition curve with a large enough effect; inconclusive = small, poorly fitted or top-dose-only effect; inactive = no such curve, though single readings can be large or run the other way; tested in A549 cells; note: nearly all actives have a fitted effect of over 35% in size; inactives centre near -10
VACV Venus inh: vaccinia inhibition (Venus reporter); Vaccinia virus Venus reporter expression, fluorescence; AID 720580; Potency, µM (doses to about 36.5 µM), for inactives: top-dose activity change, negative = inhibition, most hits filed as inhibitors; actives 0.46% (n = 330,000); active means well fitted inhibition curve with a large enough effect; inconclusive means small, poorly fitted or top-dose-only effect; inactive means no such curve, though single readings can be large or run the other way; tested in A549 cells; note: nearly all actives have a fitted effect of over 30% in size; inactives centre near -10
The depositor's hits bear a star; i = inactive; ? = inconclusive; nt = no result given; & = joins results of further samples; [ ] = another dose, or the depositor's remark. % is set by controls: 0 for no effect and ±100 for the full control effect; potency is the fitted concentration of half-maximal effect.

item	Compound	VACV mCherry inh	VACV Venus inh
1	CCCCC(c1nnnn1Cc1ccco1)N1CCN(C(=O)c2ccco2)CC1 (stereo not given)	i	-10%
2	Cc1ccc(/C=N/NC(=O)NC2CCCCC2)o1	?	-12%
3	CCS(=O)(=O)c1ccc2oc(Nc3ccc(OC)c(OC)c3)nc2c1	?	-11%
4	COc1ccc(NC(=O)CSc2nnc(C3CC3)n2C)cc1	1%	-11%
5	CNc1c(NC(=O)COc2ccc(Cl)cc2)c(=O)oc2ccccc12	19%[7.34 µM]	33%[activator][7.34 µM]
6	CCOC(=O)/C(=C/c1ccc(OC(F)F)cc1)C1=Nn2c(nnc2-c2ccc(Cl)cc2)SC1	?	11µM*
7	CS(=O)(=O)N(Cc1ccc(C(=O)NN=C2CCCCCC2)cc1)c1ccccc1	-12%	-10%
8	COc1ccc(C(=O)N(Cc2ccco2)Cc2ccco2)cc1	1%	3%
9	COC(=O)c1[nH]c(C)c(/C(O)=C2\C(=O)C(=O)N(CCN3CCOCC3)C2c2ccc(C)o2)c1C (stereo not given)	-12%	-7%
10	CCOC(=O)C1=C(C)NC(=O)NC1c1ccc(N2CCC(c3ccccc3)=N2)cc1 (stereo not given)	i	16%
11	CC1(C)Cc2ccccc2-c2c1c(=O)n(Cc1ccccc1)c1nnnn21	-13%	-8%
12	CCOc1ccc(S(=O)(=O)Nc2ccc(C(=O)N/N=C/c3c(C)nn(-c4ccccc4)c3N3CCCC3)cc2)cc1	-13%	-6%
13	CN(C)C1=NP(N(C)C)(N(C)C)=NC(c2ccccc2)=N1	-5%	-4%
14	NNc1nnc2c3cc(F)ccc3n(Cc3ccccc3)c2n1	-29%[7.34 µM]	-16%[7.34 µM]
15	CCC(=O)N1CCc2cc(S(=O)(=O)CCC(=O)O)ccc21	i	-17%
16	CC(C)(C)C(=O)CSc1nccc(=O)[nH]1	-9%	-7%
17	O=C(Nc1ccccc1Cl)c1cc(C2CCCN(C(=O)C3CCCCC3)C2)on1 (stereo not given)	-9%	-4%
18	CC(C)Cc1nnc(NS(=O)(=O)c2ccc([N+](=O)[O-])cc2)s1	?	-18%
19	Cc1nn(S(=O)(=O)c2ccccc2)c(C)c1S(=O)(=O)N1CCOCC1	-15%	-15%
20	CCc1nc2ccc(C(=O)NCCCN3CCCC3=O)cn2c1N(C)C(=O)Nc1ccccc1OC	11%	-6%
21	O=C(NCCC(=O)N1CCN(S(=O)(=O)c2ccccc2)CC1)c1ccc(Br)cc1	i	-14%
22	COc1ccc(S(=O)(=O)Nc2cccc3c2O[C@H](CN(C)C(=O)NC(C)C)[C@@H](C)CN([C@H](C)CO)C3=O)cc1	i	-26%
23	COC(=O)c1ccc(NC(=O)C(=O)N2CCN(C(=S)Nc3ccc(C)cc3)CC2)cc1	-3%	-20%
24	Cc1ccc2c(c1)C(=O)CCCCC(=O)N2	-10%	-11%
25	Cc1cc2c(OCC(O)CN3CCCC3)cccc2[nH]1 (stereo not given)	-7%	2%
26	CC1=CC(C)(C)N(S(=O)(=O)c2ccc(C)cc2)c2cc(C)ccc21	?	?
27	CC(NS(=O)(=O)c1ccc(Cl)c(Cl)c1)C(=O)Nc1cccnc1 (stereo not given)	i	-10%
28	CC1CCCCN1CCNC(=O)C1CCN(S(=O)(=O)N2CCCCC2)CC1 (stereo not given)	-4%	-3%
29	ON=C1c2ccccc2-c2ccc(F)cc21	?	-23%
30	C[C@H](CCC(=O)O)[C@H]1CC[C@H]2[C@@H]3CC[C@@H]4C[C@H](O)CC[C@]4(C)[C@H]3CC[C@]12C	i	-3%
31	Cc1ccc2[nH]c(=O)c(CN(Cc3ccco3)Cc3nnnn3Cc3ccccc3)cc2c1	11%	-9%
32	O=C(Nc1ccc(F)c(Cl)c1)N1CCN(C(=O)c2nsc3ccccc23)CC1	-3%	-9%

One compound at a time, as listed above. Values in the order: VACV mCherry inh	VACV Venus inh
Cc1ccc2[nH]c(=O)c(CN(Cc3ccco3)Cc3nnnn3Cc3ccccc3)cc2c1 reads 11%	-9%
CC(NS(=O)(=O)c1ccc(Cl)c(Cl)c1)C(=O)Nc1cccnc1 (stereo not given) reads i	-10%

Next part
item	Compound	VACV mCherry inh	VACV Venus inh
33	O=C(Nc1cc(S(=O)(=O)N2CCOCC2)ccc1N1CCCC1)c1ccc(Cl)cc1	-9%	-12%
34	CC(=O)c1ccc(NC(=O)CN(C)S(=O)(=O)c2cnc[nH]2)cc1	-5%	-8%
35	COc1cc(OC)cc(C(=O)NCCNC(=O)c2ccccn2)c1	-20%	-11%
36	COc1ccc(C2=NS(=O)(=O)N(C)C(C(=O)NCc3ccc4c(c3)OCO4)=C2)cc1	1%	-1%
37	CCOCCCNC(=S)NCCNc1nc2c(C)cccc2cc1C#N	-7%	-22%
38	COc1ccc(-c2ccc(CCC(=O)O)n2-c2cc(OC)ccc2OC)cc1	-10%	-11%
39	COc1ccc(CCN(C)Cc2c(O)ccc3cc(Br)ccc23)cc1OC	-16%	-7%
40	Cc1cccc(NC(=O)CSc2nc3ccc(NC(=O)c4ccccc4)cc3s2)c1	-3%	-7%
41	COP(=O)(OC)C(NC(=O)c1ccc(C)cc1)C(Cl)(Cl)Cl (stereo not given)	-4%	-12%
42	CCc1ccc(/C=C2/SC(=S)N(CC(=O)Nc3nc4ccccc4s3)C2=O)cc1	i	-20%
43	CC(C)OC(=O)CCC1(C(=O)O)CCC(=O)NC1 (stereo not given)	i	-6%
44	COc1cc2oc(=O)c(CC(=O)N3CCCCC3)c(C)c2cc1OC	-1%	-3%
45	Cc1ccc(OCC(=O)N(Cc2sccc2C)C2CCS(=O)(=O)C2)cc1 (stereo not given)	-8%	3%
46	Cc1nn(CC(=O)NCc2cccc(Br)c2)c(=O)c2c1sc1ccccc12	-21%	-14%
47	CCCCN1C[C@H](Cc2ccccc2)[C@@H](CC(=O)NCc2ccc(OC)cc2)C1=O	-13%	?
48	CC(C)CN(C1CCS(=O)(=O)C1)S(=O)(=O)c1ccc2ccccc2c1 (stereo not given)	-13%	-6%
49	CCC(CC)NC(=O)CN1CCN(S(=O)(=O)c2cccs2)CC1	-15%	-7%
50	O=C(COC(=O)c1cccc(Cl)c1)Nc1cc(Cl)ccc1Oc1ccccc1	-20%	-11%
51	CCCCNC(=O)C1c2ccccc2OCC(=O)N1Cc1cccnc1 (stereo not given)	6%	3%
52	Clc1cccc(-c2ccc(C=Nc3ccc(N4CCOCC4)cc3)o2)c1	-27%	-7%
53	Cn1c(SCC(=O)c2ccccc2)ncc(C(=O)Nc2ccccc2)c1=O	-10%	-1%
54	CCOC(=O)C1CCN(c2ncnc3c2c(-c2ccccc2)cn3-c2ccc(C)c(Cl)c2)CC1	-6%	-4%
55	CC(=O)c1cccc(-c2ccnc3c2CC(C(=O)Nc2ccc4c(c2)OCO4)O3)c1 (stereo not given)	-20%	?
56	O=[N+]([O-])c1ccc(N2CCN(S(=O)(=O)c3ccc(Cl)cc3)CC2)cc1NCc1cccnc1	-10%	-3%

(list continues)
No.	SMILES	VACV mCherry inh	VACV Venus inh
57	Cc1cn(S(=O)(=O)c2ccccc2[N+](=O)[O-])cn1	-3%	-3%
58	CCS(=O)(=O)c1ncc(Cl)c(C(=O)Nc2ccc(S(=O)(=O)N3CCCC(C)C3)cc2)n1 (stereo not given)	?	?
59	CC(C)NC(=O)c1ccc(-c2cccc(C(F)(F)F)c2)o1	nt	-14%
60	CC(O)CNc1nc(Cl)c(C#N)s1 (stereo not given)	-13%	-14%
61	CCOC(=O)[C@]12CCC=C1N(Cc1ccc(Cl)cc1Cl)C(=O)[C@H](CC(=O)NCCC(C)C)C2	-9%	-1%
62	COC(=O)c1cc2c(C)nn(C)c2s1	i	-7%
63	CC(=O)Nc1ccc(NC(=O)c2ccc(NS(=O)(=O)c3cc(C(C)(C)C)cc(C)c3C)cc2)cc1	i	-7%
64	Cc1c(C)c2c(OCC(=O)Nc3cccnc3)cc3c(c2oc1=O)CCC(C)(C)O3	-5%	2%
65	O=C(CNCC1CCCO1)Nc1ccc(N2CCCCCC2)cc1 (stereo not given)	-17%	-7%
66	Cc1ccc2nc(CS)[nH]c2c1	25%	7%
67	COc1cc(/C=C2\CC/C(=C\c3ccc(OCCO)c(OC)c3)C2=O)ccc1OCCO	i	4%
68	Cn1c(CNC(=O)c2ccco2)nnc1SCC(=O)Nc1ccc(Cl)cc1	-22%	-16%
69	O=C(Nc1cc2c3c(c1)CC(=O)N3CCC2)c1ccc(F)cc1	-12%	-12%
70	CC1(C(=O)Nc2cccc3ccccc23)CCN1C(=O)Cc1ccc(Cl)cc1Cl (stereo not given)	25%	-7%
71	COc1ccc(-c2csc(-n3cccn3)n2)cc1	i	-6%
72	COc1ccc(-n2c(SCC(=O)Nc3cc(C)cc(C)c3)nc3c(oc4ccccc43)c2=O)cc1	-5%	-7%
73	C/C(=N\Oc1cccc(F)n1)c1ccc(Cl)cc1Cl	nt	-14%
74	O=C(CCS(=O)(=O)Cc1ccccc1F)NCCCN1CCCCC1	nt	-12%
75	Fc1ccc(-n2nnc(-c3ccccc3Cl)n2)cc1	-3%	-3%
76	COc1ccc(C(=O)NCc2ccc3c(c2)OCO3)cc1S(=O)(=O)NCc1ccc(Cl)cc1	-20%	-16%
77	O=c1[nH]c2cc(Cl)ccc2n1-c1ccccc1	-11%[1.46 µM]	-26%
78	CCN(CC)CCCN(C(=O)c1ccc(OC)cc1)c1nc(-c2ccc(OC)cc2)cs1	-13%	-24%
79	N=C1c2ccccc2-c2ccccc21	-6%	-6%
80	O=[N+]([O-])c1ccccc1S(=O)(=O)N1CCc2ccccc2C1	i	3%
81	Cc1ccccc1OCC(=O)Nc1ccc2[nH]c(=O)sc2c1	-4%	-7%
82	CCOc1ccccc1-c1nc2c(s1)CCc1onc(-c3ccc(OC)cc3)c1-2	-25%	-17%
83	O=C(N/N=C/c1cc(Br)ccc1O)c1ccccc1Cl	?	?
84	CCCCn1c(O)c(/C(CC)=N/N2CCCCC2c2cccnc2)c(=O)[nH]c1=S (stereo not given)	-15%	-9%
85	COc1ccc(Nc2nc3ccc(OC)cc3s2)cc1	-25%	-22%
86	CCOC(=O)N1CCN(C(=O)c2cccc(N3C(=O)NC4CC3(C)Oc3ccccc34)c2)CC1 (stereo not given)	-23%	-17%

Six entries drawn at random from the list so far, as already listed:
No.	SMILES	VACV mCherry inh	VACV Venus inh
59	CC(C)NC(=O)c1ccc(-c2cccc(C(F)(F)F)c2)o1	nt	-14%
80	O=[N+]([O-])c1ccccc1S(=O)(=O)N1CCc2ccccc2C1	i	3%
76	COc1ccc(C(=O)NCc2ccc3c(c2)OCO3)cc1S(=O)(=O)NCc1ccc(Cl)cc1	-20%	-16%
65	O=C(CNCC1CCCO1)Nc1ccc(N2CCCCCC2)cc1 (stereo not given)	-17%	-7%
64	Cc1c(C)c2c(OCC(=O)Nc3cccnc3)cc3c(c2oc1=O)CCC(C)(C)O3	-5%	2%
66	Cc1ccc2nc(CS)[nH]c2c1	25%	7%

Continuation.
No.	SMILES	VACV mCherry inh	VACV Venus inh
87	CCN(CC(=O)Nc1c(F)cccc1F)C(=O)/C=C/c1ccc2ccccc2n1	-12%	-2%
88	CCCCNC(=O)c1nc(-c2cc3ccccc3[nH]2)oc1-c1ccccc1	-11%	-23%
89	CCOC(=O)[C@]12CCCC=C1N(CCc1ccc(OC)c(OC)c1)C(=O)[C@H](CC(=O)NCCCCc1ccccc1)C2	?	?
90	C/C(=N\O)C(C)/[N+]([O-])=C/c1nc(C)c(C)n1O (stereo not given)	nt	3%
91	CC(=O)Nc1ccc(CN(C)CC2CCCN(CCc3cccc(C(F)(F)F)c3)C2)cc1 (stereo not given)	-27%	-24%
92	COc1ccccc1/C=C/C=N/NC(=O)CCn1cnc2ccccc21	?	-23%
93	Cc1c(-c2ccc(OCc3ccccc3)cc2)nc2ccccc2c1C(=O)O	-8%	-4%
94	CC1(C(=O)Nc2cccc3c2CCCC3)CCN1C(=O)c1cccc(F)c1 (stereo not given)	i	-5%
95	CC(C)(C)c1ccccc1NC(=O)COC(=O)CN1C(=O)NC2(CCCC2)C1=O	-23%	-5%
96	CN(CC(=O)Nc1ccc2c(c1)OCCO2)CC(=O)Nc1ccc(F)c(F)c1F	-20%	-21%
97	CCC(=O)Nc1ccccc1C(=O)OCC(=O)c1ccccc1	6%	-16%
98	COC(=O)C1=C(c2ccc(S(C)(=O)=O)cc2)C[C@@H]2CC[C@H]1N2C(=O)NC(C)C	0%	-3%
99	CCC(=O)N(Cc1cc2c(C)ccc(C)c2[nH]c1=O)C1CCCCC1	nt	-25%
100	Cc1ccc(NC(=O)c2c(NC(=O)Cc3ccccc3)sc3c2CCC3)cc1	-10%	0%
101	COC(=O)C[C@H]1c2ccccc2S(=O)(=O)N1C(C)C	-21%	2%&-8%
102	COc1ccc(C2C(=O)N(C3CCCCCC3)CC(=O)N2CCC2=CCCCC2)cc1 (stereo not given)	-29%	-21%
103	FC(F)(F)c1cccc(-n2c(Cn3nnc4ccccc43)n[nH]c2=S)c1	i	-18%
104	CN(C)c1ccc2nc3ccc(=O)cc-3sc2c1	73%[activator]	?
105	O=C1C=C(C#Cc2ccccc2)C[C@@H](c2ccc(F)cc2)C1	-14%	-19%
106	O=C1CN(C(=O)C2CC2)c2ccccc2N1	0%	-3%
107	CCCCCCCCCCCCC/C=C/[C@@H](O)[C@H](CO)N(C)C	i[3.33 µM]	-11%[3.33 µM]
108	CCOC(=O)COc1c(C(=O)OC)sc2ncccc12	i	-11%
109	COC(CNC(=O)C(=O)NCC1CCCN1S(=O)(=O)c1cccs1)OC (stereo not given)	-10%	-9%
110	Cc1ccc(C)c(-n2c(Cc3cc(=O)[nH]c(=O)[nH]3)nnc2SC(C)C)c1	16%	-6%
111	O=c1[nH]c(=O)n(C2CCCCC2)c(O)c1C1=Nc2ccccc2SC(c2ccccc2)C1 (stereo not given)	-17%	-18%
112	CCOC(=O)c1ccc(NC(=O)C2CCCO2)cc1 (stereo not given)	i	6%
